Source: PubChem
Menin MLL FP FL – displaces fluorescein MLL peptide from human menin; Fluorescence polarization, fluorescein-MLL peptide displacement from menin; FP activity change, % at 61.4 µM; 290,000 tested, under 10 active; AID 1766; inconclusive = falling polarisation curve, or a change in total fluorescence; inactive = total fluorescence flat and polarisation flat or rising; no compound was filed as active; the % refers to the polarisation; negative = inhibition;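 also: % of control where 0% means no effect; inhibitors lower the polarisation; unlabelled MLL peptide was the positive control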
gsp agonist – agonists of gsp mutant (McCune-Albright syndrome); gsp mutant cells, cAMP HTRF, 30 min; control for the full effect not named in the record; Potency, µM (series often up to 76.9 µM), without a hit: top-dose activation (cAMP increase), most hits filed as activators; actives 0.13% (n = 340,000); active = well fitted activation curve with a large enough effect; inconclusive = small, poorly fitted or top-dose-only effect, or another doubt; inactive = no such curve, though single readings can be large or run the other way; cell line not stated here;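 also: phosphodiesterase inhibitor Ro 20-1724 added with compounds to block cAMP breakdown; potency is read from the fitted curve at half-maximal effect; nearly all actives have a fitted effect of over 60% in size; about a fifth of the inactives were tested at one dose only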
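Cells in DMEM/10% FBS with G418 were pretreated with compounds in DMSO plus […] (300 uM stock) for 30 min at 37C. cAMP was measured by HTRF (cAMP-d2 plus anti-cAMP antibody-K) after 30 min at room temperature.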
TRPML1 blocker – human mucolipin-1 channel inhibition | Q9GZU1 | actives 0.02% (n = 390,000) | TRPML1-inducible cells, Ca2+ dye fluorescence, FDSS; active compounds read low; inhibition of EC80 agonist-evoked calcium signal | activity change, negative = inhibition, % (no concentration beside the values); in the data active means activity change below about -50%; inconclusive means about -30% to -50%; inactive means above about -30%;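 also: stimulus is agonist 54-4 at its EC80 concentration; % is scaled to controls: 0 for no effect and ±100 for the full control effect; compound concentration not given in the record; the text of the record puts the active cut at -80%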
Target sequence (Q9GZU1 whole entry, looked up): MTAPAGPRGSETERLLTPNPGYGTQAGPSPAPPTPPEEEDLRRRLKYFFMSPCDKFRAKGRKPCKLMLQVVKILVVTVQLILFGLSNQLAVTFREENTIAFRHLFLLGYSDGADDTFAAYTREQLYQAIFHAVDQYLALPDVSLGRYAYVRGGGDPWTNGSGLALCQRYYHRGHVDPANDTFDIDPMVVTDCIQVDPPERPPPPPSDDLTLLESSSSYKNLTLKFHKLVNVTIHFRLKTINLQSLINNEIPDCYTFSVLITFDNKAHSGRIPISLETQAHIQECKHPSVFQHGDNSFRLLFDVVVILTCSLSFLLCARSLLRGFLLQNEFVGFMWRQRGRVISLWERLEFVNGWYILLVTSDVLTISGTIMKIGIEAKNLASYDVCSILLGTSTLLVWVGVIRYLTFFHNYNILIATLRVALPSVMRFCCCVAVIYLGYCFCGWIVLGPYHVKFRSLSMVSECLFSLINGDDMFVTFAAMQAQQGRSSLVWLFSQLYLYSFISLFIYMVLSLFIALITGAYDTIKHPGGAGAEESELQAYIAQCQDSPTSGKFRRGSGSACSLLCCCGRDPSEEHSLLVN
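Calcium fluorescence in TRPML1-DL cells induced overnight with Tet: a 110 s read after compound pin addition, then a 110 s antagonist read after challenge with 54-4 at 4 uM final (EC80).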
gsp antagonist – gsp mutant antagonism. gsp-mutant cells, cAMP HTRF, 30 min; control for the full effect not named in the record. Potency, µM (doses to about 76.9 µM), for inactives: top-dose activity change, negative = inhibition, usual class: inhibitors. actives 0.4% (n = 340,000). AID 624288; active = falling curve of any shape with a large fitted effect; inconclusive = falling curve, mostly with a smaller effect; inactive = flat or rising curve; cell line not stated here;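 also: intracellular cAMP measured with PDE inhibitor Ro 20-1724 present during compound exposure; potency is read from the fitted curve at half-maximal effect; % is scaled to controls: 0 for no effect and ±100 for the full control effect; nearly all actives have a fitted effect of over 65% in size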
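Measurement of cellular cAMP by homogeneous time-resolved fluorescence following a 30 min compound exposure at 37C. The PDE inhibitor […] was present throughout; the assay buffer was DPBS with 0.05% BSA and 0.005% Tween 20.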
TRPV1 PAM – potentiators of human vanilloid receptor 1 (TRPV1); Q8NER1; TRPV1-expressing cells, Fluo-8 calcium influx, capsaicin EC20 potentiation; host cell line not named in the record; control for the full effect not named in the record; potentiation, % at 8.33 µM; actives 0.02% (n = 320,000); active means potentiation above 80%; inconclusive means 30% to 80%; inactive means below 30%; also: 0% is about no effect
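TRPV1-expressing cells were cultured overnight at 35.5C and loaded with Fluo-8 calcium dye for 40 to 90 min at room temperature. After a 10 s baseline, compound was added and calcium influx was read kinetically for 3 min (ex 480/em 520 nm).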
ClpP mod – qHTS Assay for Activators of ClpP; AID 651965, 2013; actives 1.9% (n = 340,000); purified B. subtilis ClpP, FRET peptide cleavage, 20 min; Potency, µM (titrated, usually from 57.5 µM), without a hit: at the highest dose activity change, negative = active; active = well fitted falling curve with a large enough effect; inconclusive = small, poorly fitted or top-dose-only effect; inactive = no such curve, though single readings can be large or run the other way; also: potency is read from the fitted curve at half-maximal effect; the source files actives as falling curves though it sought activators and does not explain the sign; nearly all actives have a fitted effect of over 65% in size; many hits overshoot -100%
Target sequence (P80244 whole entry, looked up): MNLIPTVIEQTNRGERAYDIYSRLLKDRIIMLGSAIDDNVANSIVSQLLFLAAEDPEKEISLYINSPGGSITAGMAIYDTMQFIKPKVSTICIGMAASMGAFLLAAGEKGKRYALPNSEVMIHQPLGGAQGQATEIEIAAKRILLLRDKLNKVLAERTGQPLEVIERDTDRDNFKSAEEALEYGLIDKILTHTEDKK
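ClpP 10 microg/mL final, pH 8 Tris/KCl buffer with BSA, glycerol, Tween-20; compound pinned in; FRET-FV substrate; RT 20 min; Ex320/Em430; ΔFRET vs ADEP 5.8 microM, DMSO, no enzyme.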
Sfp inh – blocks B. subtilis Sfp PPTase activity; Q9F4F7; Biochemical Sfp PPTase activity, qHTS; Potency, µM, for the others: max response, negative = inhibition, actives largely listed as inhibitors; actives 3.5% (n = 310,000); active = well fitted inhibition curve with a large enough effect; inconclusive = small, poorly fitted or top-dose-only effect, or another doubt; inactive = no such curve, though single readings can be large or run the other way;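 also: the enzyme is Sfp with the accession as filed and its product quenches rhodamine fluorescence; potency is read from the fitted curve at half-maximal effect; 0% = enzyme reaction without inhibitor and -100% = no enzyme wells; top concentration of the series not given in the record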
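Reaction rates are the 30-min fluorescence difference (ex 525, em 598 nm) in wells containing 15 nM Sfp, 5 uM rhodamine-CoA and 12.5 uM BHQ-2-YbbR at pH 7.6 with 10 mM MgCl2.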
An asterisk follows results filed as active; ? = inconclusive; nt = not tested or not shown; & = joins results of further samples; [ ] = dose if it differs, or a comment.

Start of the listing, in advance:
Order of values: Sfp inh, gsp antagonist, ClpP mod, Menin MLL FP FL, TRPML1 blocker, TRPV1 PAM, gsp agonist
- Cc1noc(C)c1C(=O)OCC(=O)c1cc(C)n(Cc2ccccc2Cl)c1C
  ?, ?, 7.3%, 2.0, 53, -10, -2%
- COc1cc(CCCN2C(=S)NC[C@@H]2Cc2ccccc2)cc(OC)c1OC
  14%, -6%, 1.7%, -3.0, 28, 18, nt

Results, repeating the preview:
Order of values: Sfp inh, gsp antagonist, ClpP mod, Menin MLL FP FL, TRPML1 blocker, TRPV1 PAM, gsp agonist
- Cc1noc(C)c1C(=O)OCC(=O)c1cc(C)n(Cc2ccccc2Cl)c1C
  ?, ?, 7.3%, 2.0, 53, -10, -2%
- COc1cc(CCCN2C(=S)NC[C@@H]2Cc2ccccc2)cc(OC)c1OC
  14%, -6%, 1.7%, -3.0, 28, 18, nt
- Cc1c(C#N)c(N)nc2c3c(sc12)NC(=O)CC3c1ccccc1 (configuration not stated)
  -17%, 13%, -27%, nt, -2, -9, -5%[15.4 µM]
- N#C/C(=C\c1cc2c(cc1Br)OCO2)C(=O)NCC1CCCO1 (configuration not stated)
  -17%, -4%, nt, -0.1, -13, 16, 13%[15.4 µM]
- Cc1ccnc(NS(=O)(=O)c2ccc(NC(=O)c3snnc3C)cc2)n1
  -3%, 7%, 0.0%, 2.8, -9, 3, ?
- O=C(Nc1ccc(NS(=O)(=O)c2ccccc2)c(Cl)c1)c1ccccc1
  nt, -14%, nt, nt, 6, nt, -40%[inhibitor]
- C=CC(=O)NCCCc1cc(C(C)(C)C)c(O)c(C(C)(C)C)c1
  6%, -9%, nt, 6.0, -13, 0, 4%[15.4 µM]
- CC(=O)N1CCc2cc(S(=O)(=O)CCC(=O)Nc3ccc(Cl)cc3F)ccc21
  -6%, 16%, 1.5%, -1.0, -19, -10, -41%[inhibitor]
- COc1ccc2nc(NC(=O)CSc3nnc(-c4ccoc4C)n3C)sc2c1
  5%, -15%, -0.2%, -1.0, -1, 14, -75%[inhibitor]
- CC(=O)c1ccc(OCc2cc(C(=O)N(C)Cc3nc4c(C)cccc4[nH]3)no2)cc1
  10%, -11%, 1.1%, 0.8, 23, 7, 1%[15.4 µM]
- CNC(=O)NC(=O)CSc1nnc(C(F)(F)F)n1C
  11%, 14%, -4.6%, 2.3, 24, -8, -6%
- O=C(O)CCC(=O)NCCc1cccc(Cl)c1
  -8%, 5%, nt, -1.3, -6, 5, -5%
- Cc1ccc(C(=O)N2CCCC(c3ccccc3)=N2)cc1
  4%, 7%, nt, 2.6, -7, -17, -29%[15.4 µM]
- COc1ccc(CCNC(=O)NC23CC4CC(CC(C4)C2)C3)cc1
  6%, -19%, 0.2%, 2.9, 4, 3, -19%
- CCCOc1ccc(-c2nn(-c3ccccc3)cc2/C=C2\SC(N)=NC2=O)cc1C
  1%, 12%, 0.6%, 7.8, 10, -9, -19%
- CCN(C(=O)C(C)OC(=O)c1nn(-c2ccccc2C(F)(F)F)cc1O)c1ccccc1 (configuration not stated)
  nt, -1%, 4.0%, nt, -8, nt, -8%[15.4 µM]
- COc1ccc(NC(=O)CSc2nc(C)c3c(c2C#N)CCCC3)cc1
  9%, 5%, 7.0%, -1.5, -8, -9, 28%
- C/C(=N/NS(=O)(=O)c1cccc([N+](=O)[O-])c1)c1ccncc1
  -17%, 4%, -0.4%, nt, -1, 2, -26%
- Cc1cccc(N2CCN(C(=S)NCc3ccco3)CC2)c1C
  -15%, -1%, -0.6%, -1.0, -8, -15, 2%
- c1cc2c3c(cccc3c1)NC1(CCCCC1)N2
  -12%, 9%, 0.6%, 3.7, -2, -3, -26%
- CCN1C(=O)[C@H]2[C@@H](c3ccc(-c4cccc(Cl)c4)c(OC)c3)N[C@@](C)(C(=O)OC)[C@H]2C1=O
  nt, ?, 4.0%, nt, ?, 12, -26%
- CCOC(=O)[C@@H]1[C@H]2COc3cc(OC)ccc3[C@H]2N2C(=O)N(c3ccc(C(F)(F)F)cc3)C(=O)[C@]12C
  nt, -9%, -0.8%, nt, -12, nt, nt
- Cc1ccc(S(=O)(=O)CCC(=O)OCC(=O)Nc2sccc2C#N)cc1
  nt, nt, -0.2%, nt, 1, nt, -27%
- O=C(CSc1nnc(-c2ccncc2)o1)Nc1cc(Cl)ccc1C(=O)O
  nt, 9%, nt, nt, -13, nt, 14%
- COC(=O)CCc1c(C)nn(-c2ccccc2)c1C
  2%, -13%, 1.2%, 0.5, 2, -8, -71%[inhibitor]
- C=CCn1c(N(C)C)nc2c1c(=O)[nH]c(=O)n2C
  4%, 3%, -0.2%, 2.5, 2, 20, ?
- O=C(NCCc1ccc(Cl)cc1)c1cc(S(=O)(=O)N2CCCCC2)c[nH]1
  -13%, -7%, -2.3%, -4.7, 7, -1, ?
- O=C(CCl)Nc1ccc(S(=O)(=O)Nc2nccs2)cc1
  5%, 7%, nt, nt, 1, -3, 3%
- Cc1ccccc1CN(c1ccc(C(=O)N2CCc3ccccc3C2)cc1)S(C)(=O)=O
  6%, -9%, 2.1%, -0.4, 24, -30, -6%
- CCOC(=O)Nc1ccc(S(=O)(=O)Nc2nc(C)cc(C)n2)cc1
  19%, 10%, -1.4%, 0.3, -1, 6, 3%
- Cc1cc(CNC(=O)[C@H]2C[C@@H]2[C@H](NP(=O)(c2ccccc2)c2ccccc2)c2ccccc2)nn1C
  -4%&9%, 1%, 0.8%, -1.1&-6.3, -6, 2, 0%
- CN(C(=O)C1CCCO1)c1nnc(-c2cnccn2)s1 (configuration not stated)
  17%, 6%, ?, 0.7, 5, 8, -11%
- O=C(Cn1c(=O)oc2ccccc21)Nc1nnc(N2CCCCCC2)s1
  -10%, 5%, -0.4%, 11, -1, -10, 9%
- O=C(Nc1ccc(Cl)cc1)NC1CCCC1Cc1ccco1 (configuration not stated)
  22%, ?, -0.7%, 6.3, -4, -12, 7%
- CN(C)Cc1c(O)ccc2c(=O)c(-c3ccc(Cl)cc3)coc12
  3%, 11%, 0.5%, -0.9, 1, ?, 6%[15.4 µM]
- CCc1[nH]nc2c1C(C(C)C)C(C#N)=C(N)O2 (configuration not stated)
  8%, -2%, -0.6%, 2.0, 3, -19, 5%
- CCN1CCN(C2CCCCC2NS(=O)(=O)c2ccccc2)CC1 (configuration not stated)
  15%, 10%, 2.2%, -3.1, -3, ?, ?
- COc1ccccc1-n1c(COc2ccccc2-c2ccccc2)nnc1SCC(=O)c1c(N)n(C)c(=O)n(C)c1=O
  -9%, 5%, -3.1%, 3.7, -14, 1, 6%
- COC(=O)[C@H](Cc1ccccc1)NC(=O)C1CCN(C(=O)[C@H](C)NS(=O)(=O)c2ccc(C)cc2)CC1
  -14%, -20%, 1.2%, nt, -2, 1, -58%[inhibitor]
- O=C(Cc1ccccc1)N/N=C/c1ccccn1
  nt, -2%, -0.7%, nt, 14, nt, -44%[inhibitor]
- CC(C)(C#CC(O)(c1ccccc1)c1ccccc1)N1CCCC1
  6%, 16%, 0.5%, -0.9, -7, 13, -42%[inhibitor]
- CC(Sc1ccc(S(=O)(=O)N2CCOCC2)cc1[N+](=O)[O-])C(=O)O (configuration not stated)
  -17%, 24%, 2.8%, nt, 7, 19, -15%
- CCOc1ccc(C2/C(=C(/O)c3ccc(F)cc3)C(=O)C(=O)N2CCCN(C)C)cc1 (configuration not stated)
  -8%, 5%, -8.6%, -0.1, 10, -4, -27%
- Cc1cc(F)ccc1S(=O)(=O)N1CCCOC1CNC(=O)C(=O)NCCc1ccco1 (configuration not stated)
  nt, nt, -0.4%, nt, -4, nt, 1%
- CC(c1ccc(C(C)(C)C)cc1)S(=O)CC(O)CO (configuration not stated)
  4%, 19%, 0.4%, nt, 9, 1, -20%
- CCn1c(NC(=S)Nc2ccccc2)nc2ccccc21
  -1%, 5%, 1.3%, -0.8, 11, 5, 20%
- COCCn1c(SCC(=O)Nc2ncc(C)s2)nc2sc3c(c2c1=O)CCC3
  -27%, nt, nt, 9.0, nt, 5, nt
- COC(=O)CN1C(c2cccc(Cl)c2)=Nc2ccc(Cl)cc2C1c1ccccc1 (configuration not stated)
  4%, -21%, -1.6%, 2.4, 51, -3, 3%
- Cc1cc(NC(=O)CSc2nnc(COc3cccc(C)c3C)n2C)no1
  10%, 0%, -1.0%, 1.4, -2, -19, -6%
- CCOC(=O)c1c2ccc(OCC(=O)N/N=C/c3ccc(C)cc3)cc2n2ccccc12
  -9%, -5%, 0.9%, 7.6, 20, -17, -31%[inhibitor]
- CCOC(=O)c1csc(NC(=O)c2ccc(S(=O)(=O)N(CC)CC)cc2)n1
  -14%, 7%, 0.7%, 4.1, 18, 21, 0%
- COc1ccc(NC(=O)Cc2nnc(SCC(=O)Nc3cc(C)ccc3OC)n2C)cc1
  18%, 0%[15.4 µM], 25µM*, -0.7, -3, 18, -50%[inhibitor]
- Cc1cc(-c2nnc(SCC(=O)Nc3ccc(C(F)(F)F)cc3)n2C)no1
  4%, 1%, -2.1%, 2.1, ?, nt, -39%[inhibitor]
- CCOc1ccc(C(=O)OC(C)CN2CCCCC2)cc1 (configuration not stated)
  -5%, 12%, nt, 5.7, -1, 5, -86%[inhibitor]
- CCn1c(=S)sc2c(=O)n(CC(=O)Nc3ccc(OC)c(Cl)c3)c(C)nc21
  17%, ?, 2.1%, 0.3, 32, 3, 21%
- O=C(Nc1ccc(Cl)c(S(=O)(=O)Nc2ccccc2Cl)c1)c1cccs1
  13%, -44%, 0.2%, 3.7, -7, 1, -6%[15.4 µM]
- CCOC(=O)c1nnn(-c2nonc2N)c1-c1ccc(Cl)cc1
  8%, -1%, 1.4%, 2.0, -5, -7, -14%
- COc1cccc(/C=N/n2c(SC)nnc2-c2ccccc2)c1OC
  5%, -13%, -5.2%, 2.7, -5, -22, -6%
- NC(=O)c1ccc(C(F)(F)F)n(Cc2cccc(Cl)c2)c1=O
  0%, -2%, 1.6%, -1.2, -6, 19, 9%

As entered above.
CCOc1ccc(C(=O)OC(C)CN2CCCCC2)cc1 (configuration not stated) – TRPML1 blocker: -1
O=C(Cc1ccccc1)N/N=C/c1ccccn1 – ClpP mod: -0.7%

This is a random part of the collection. About 4.9% of those tested had a hit in this group.
